Screening data as filed in PubChem BioAssay.
MITF inh: MITF inhibition | AID 2240 | 37,000 compounds, 0.28% hits | TRPM1 promoter luciferase, luminescence, 24 h | inhibition, % (test concentration not listed);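 active means most replicates at 85% or more, or half of them and the mean; inconclusive means half reach 85% but not the mean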;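 further: human melanocyte line stably carrying TRPM1 promoter luciferase reporter; 0% = vehicle wells and 100% = a positive control; the first replicate is given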
Shh pathway inh: Sonic Hedgehog pathway inhibition; Shh-LIGHT2 Gli-luciferase reporter, 30 h; inhibition, % (no concentration beside the values); 22,000 compounds, 2.1% hits;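 active means replicate mean of 65% or more; inconclusive means mean lower but half the replicates past it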;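 further: pathway switched on by Shh-conditioned medium diluted 1 in 25 in low serum; 100 nL library stock added to about 40 µL; 0% = median of neutral wells and 100% = positive control level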
PD-1 reverse act: reversal of PD-1 mediated T-cell inhibition | 29,000 tested, under 10 active | AID 2316 | primary human CD4 T cells, PD-L1 beads, CellTiter-Glo 96 h | activation, % (concentration not given with the values);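 active means replicate mean of 50% or more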;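 further: 0% = median vehicle wells and 100% = positive control; 100 nL library stock added to about 50 µL; numbers are from one replicate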
YB-1 expr inh: YB-1 expression inhibition; U2OS, qRT-PCR YB-1 vs CDIP delta delta Cp, 16 h; hits give high values; zero = DMSO, each unit about twofold; delta delta Cp (YB-1 minus CDIP) (no concentration beside the values); 30,000 compounds, 0.37% hits; AID 434959;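 active means delta delta Cp rounded down to an integer at or above 3, about 3 SD of DMSO wells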;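 further: higher means less YB-1 transcript or more CDIP transcript relative to DMSO; stock transfer was 100 nL into about 100 µL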
* marks the source's active call; other numbers are inactive results; u = inconclusive; x = not tested or not shown; & = joins results of further samples. This is a subset; count on the stated rates, not on these rows.

SMILES	MITF inh	Shh pathway inh	PD-1 reverse act	YB-1 expr inh
Cn1c(SCC(=O)n2c3c(c4ccccc42)CCCC3)nnc1-c1ccco1	18	x	-3.5	x
C[C@H]1CN([C@@H](C)CO)C(=O)Cc2cc(NC(=O)Cc3cn(C)c4ccccc34)ccc2O[C@@H]1CN(C)S(=O)(=O)c1cccs1	5	x	-0.3	-0.025
C=C1CCC2C(C(=O)O)=COC(O[C@@H]3O[C@H](CO)[C@@H](O)[C@H](O)[C@H]3O)C12 (stereo partly drawn)	3	-26	0.8	0.13
Cc1ccc(S(=O)(=O)N(C)C[C@@H]2Oc3ccc(NS(=O)(=O)c4cn(C)cn4)cc3C(=O)N([C@@H](C)CO)C[C@H]2C)cc1	3	-9	1.1	0.12
CN1CCC(=C2c3ccccc3C=Cc3ccccc32)CC1	-20&-27	u	-2.3	0.4&0.5
c1ccc2sc(SCc3nc4c5c6c(sc5ncn4n3)CCCC6)nc2c1	28	x	2.6	x
C[C@@H]1CN([C@@H](C)CO)C(=O)c2cccc(NC(=O)Nc3ccc(F)cc3)c2O[C@@H]1CN(C)S(=O)(=O)c1ccccc1	11	-5	0.0	-0.2
C[C@@H]1CN([C@H](C)CO)C(=O)c2cccc(NS(=O)(=O)c3cccs3)c2O[C@@H]1CN(C)Cc1ccc(C(=O)O)cc1	-4	13	2.2	0.19
Cc1nn(C)c(C)c1NC(=O)c1ccc(Cl)cc1	2	-17	-0.2	-0.28
O=C(CCN1C(=O)C2C3C=CC(C3)C2C1=O)Oc1cccc2cccnc12 (stereo not drawn)	9	x	-13	x
Cc1cc(N(CC(=O)Nc2ccccc2-c2ccccc2)S(C)(=O)=O)ccc1Br	-22	x	-1.5	x
COc1ccc(C(=O)CCC(=O)Nc2cccnc2)c(OC)c1	3	x	1.3	x
C[C@@H]1CN([C@H](C)CO)C(=O)c2cccc(NS(C)(=O)=O)c2O[C@@H]1CN(C)C(=O)Nc1ccc(C(F)(F)F)cc1	-8	15	3.3	0.16
COc1ccc(NC(=O)Nc2cccc3c2O[C@@H](CN(C)S(C)(=O)=O)[C@H](C)CN([C@H](C)CO)C3=O)cc1	-6	15	-0.8	-0.026
Cc1cc(Cl)cc(Cl)c1OCC(=O)Nc1ccc(Cl)c(-c2nc3ncccc3o2)c1	15	x	0.4	x
C[C@H]1CN([C@@H](C)CO)C(=O)c2cc(NC(=O)Nc3ccc(F)cc3)ccc2O[C@H]1CN(C)C(=O)Nc1ccc2c(c1)OCO2	-1	-14	0.6	-0.24
Cc1noc(C)c1S(=O)(=O)N(C)C[C@H]1Oc2ccc(NC(=O)Nc3ccc(C(F)(F)F)cc3)cc2CC(=O)N([C@H](C)CO)C[C@H]1C	0	x	-1.1	-0.55
Cc1cc(C)cc(N(CC(=O)Nc2c(C)n(C)n(-c3ccccc3)c2=O)S(C)(=O)=O)c1	-9	x	0.8	x
C[C@H]1CN([C@@H](C)CO)C(=O)c2cccc(NC(=O)Nc3ccc(C(F)(F)F)cc3)c2O[C@@H]1CN(C)Cc1ccncc1	-5	1	0.6	-0.32
Cc1[nH]c2ccccc2c1C(=O)CSc1nc(-c2ccccc2)cs1	10	x	2.3	x
CC(C)(C)NC(=O)CC(c1ccccc1)c1ccccc1	8	13	0.2	-0.18
C[C@@H]1CN([C@@H](C)CO)C(=O)Cc2cc(NC(=O)Cc3ccccc3)ccc2O[C@@H]1CN(C)S(=O)(=O)c1ccccc1	5	2	-4.3	0.31
COc1ccc(NC(=S)NCCc2ccccc2OC)c(OC)c1	7	x	-3.4	x
C[C@H]1CN([C@@H](C)CO)C(=O)Cc2cc(NC(=O)Cc3ccccc3)ccc2O[C@@H]1CN(C)CC1CCCCC1	-16	-48	-0.7	0.032
C[C@@H]1CC[C@]2(C)[C@H](CC[C@@H](O)[C@]2(C)O)[C@@]1(C)CC/C(=C/CO)CO	x	-29	x	-0.011
New compounds follow.
SMILES	MITF inh	Shh pathway inh	PD-1 reverse act	YB-1 expr inh
O=c1cc(CSc2nnnn2-c2ccccc2)nc2nc[nH]n12	-42	x	1.7	x
CC(C)NC(=O)N(C)C[C@H]1Oc2c(NC(=O)C3CCCCC3)cccc2C(=O)N([C@H](C)CO)C[C@@H]1C	0	31	0.5	0.45
Cc1noc(C)c1S(=O)(=O)Nc1ccc2c(c1)CC(=O)N([C@H](C)CO)C[C@@H](C)[C@H](CN(C)CC1CCCCC1)O2	-24	-2	0.5	0.4
COc1ccc2nc3c(nc2c1)C(=O)c1ccccc1C3=O	9	-41	0.7	0.19
C[C@H](CO)N1C[C@H](C)[C@H](CN(C)C(=O)Nc2ccc3c(c2)OCO3)Oc2c(NC(=O)C3CCOCC3)cccc2C1=O	9	18	0.2	0.38
Cc1noc(C)c1NC(=O)N(C)C[C@@H]1Oc2c(NC(=O)C3CC3)cccc2C(=O)N([C@@H](C)CO)C[C@@H]1C	-8	-30	1.0	0.5
COc1ccc(S(=O)(=O)Nc2cccc3c2O[C@@H](CN(C)S(=O)(=O)c2ccc(F)cc2)[C@H](C)CN([C@@H](C)CO)C3=O)cc1	38	-3	-4.6	0.48
C[C@@H]1CN([C@H](C)CO)C(=O)c2cc(NC(=O)C3CC3)ccc2O[C@H]1CN(C)C	5	-4	1.4	0.14
C[C@H](CO)N1C[C@H](C)[C@H](CN(C)S(=O)(=O)c2ccc(Cl)cc2)Oc2ccc(NC(=O)C3CC3)cc2CC1=O	17	-40	1.2	-0.22
COc1ccc(S(=O)(=O)N(C)C[C@H]2Oc3ccc(NC(=O)Cc4ccccc4)cc3C(=O)N([C@@H](C)CO)C[C@@H]2C)cc1	1	x	0.6	-0.14
C[C@@H]1CN([C@@H](C)CO)C(=O)c2cc(N(C)C)ccc2O[C@H]1CN(C)S(=O)(=O)c1cn(C)cn1	2	-7	x	0.27
O=C(CSc1nnc(-c2ccncc2)n1-c1ccccc1)Nc1ccc(OC(F)(F)F)cc1	-5	x	0.0	x
COC(=O)c1ccccc1NC(=O)c1ccc(NC(=O)C2CCCO2)cc1 (stereo not drawn)	-21	x	0.0	x
C[C@H]1CN([C@@H](C)CO)C(=O)c2cc(NC(=O)CCCN(C)C)ccc2O[C@@H]1CN(C)Cc1ccc(-c2ccccc2)cc1	-19	x	0.4	0.17
C[C@@H]1CCCCO[C@H](CN(C)S(=O)(=O)c2ccc(F)cc2)[C@@H](C)CN([C@H](C)CO)C(=O)c2cc(N(C)C)ccc2O1	6	u	-0.5	-0.014
COc1ccc(OC)c(NS(=O)(=O)c2ccccc2)c1	2	-3	-1.0	0.18
COc1ccc(S(=O)(=O)N(C)C[C@@H]2Oc3c(NC(=O)NC4CCCCC4)cccc3C(=O)N([C@H](C)CO)C[C@H]2C)cc1	8	-5	-2.0	0.21
C[C@@H]1CN([C@@H](C)CO)C(=O)Cc2cc(NC(=O)CCC(F)(F)F)ccc2O[C@@H]1CN(C)S(=O)(=O)c1ccc(Cl)cc1	-3	17	0.3	-0.035
O=C(NCc1ccco1)c1cccnc1-c1nc2ccccc2s1	20	x	-2.7	x
C[C@H]1CN([C@@H](C)CO)C(=O)c2cc(NC(=O)NC3CCCCC3)ccc2O[C@H]1CN(C)C	-1	-26	0.4	0.23
C[C@H](CO)N1C[C@H](C)[C@H](CN(C)Cc2ccncc2)Oc2c(NC(=O)Nc3ccc(F)cc3)cccc2C1=O	-9	-43	1.9	-0.52
C[C@H](CO)N1C[C@H](C)[C@H](CN(C)Cc2ccc(Oc3ccccc3)cc2)Oc2ccc(NC(=O)CCCN(C)C)cc2CC1=O	4	55	x	0.25
CC(C)NC(=O)Nc1ccc2c(c1)CC(=O)N([C@@H](C)CO)C[C@@H](C)[C@@H](CN(C)S(=O)(=O)c1ccccc1)O2	6	-8	-1.1	0.02
CN(C)c1ccc(C(=C2C=CC(=[N+](C)C)C=C2)c2ccc(N(C)C)cc2)cc1	109*	97*	x	-0.27
Cc1ccc(S(=O)(=O)Nc2ccc3c(c2)CC(=O)N([C@@H](C)CO)C[C@H](C)[C@H](CN(C)Cc2ccc4c(c2)OCO4)O3)cc1	8	10	1.2	0.21
Following part
SMILES	MITF inh	Shh pathway inh	PD-1 reverse act	YB-1 expr inh
COc1ccccc1NC(=O)C1=C(C)Nc2ncnn2C1c1cc(Br)c(O)c(OC)c1 (stereo not drawn)	0	x	1.1	x
CO[C@@H]1[C@@H](OC(N)=O)[C@@H](O)[C@H](Oc2ccc3c(O)c(NC(=O)c4ccc(O)c(CC=C(C)C)c4)c(=O)oc3c2C)OC1(C)C	-16	-35	x	-0.22
C[C@H]1CN([C@@H](C)CO)C(=O)Cc2cc(NC(=O)Nc3cccc4ccccc34)ccc2O[C@H]1CN(C)Cc1ccc(C(=O)Nc2ccccc2N)cc1	11	x	-1.2	-0.32
COc1ccc(S(=O)(=O)Nc2ccc3c(c2)C(=O)N([C@H](C)CO)C[C@H](C)[C@@H](CN(C)S(=O)(=O)c2cn(C)cn2)OCCCC[C@@H](C)O3)cc1	-11	54	x	0.18
COc1ccc(S(=O)(=O)Nc2cccc3c2O[C@H](CN(C)S(=O)(=O)c2cccs2)[C@H](C)CN([C@H](C)CO)C3=O)cc1	-19	19	x	-0.11
Cc1ccc(N(Cc2cc3ccccc3[nH]c2=O)C(=O)c2cccnc2)cc1	5	x	1.2	x
C[C@@H]1CN([C@H](C)CO)C(=O)Cc2cc(N(C)C)ccc2O[C@@H]1CN(C)Cc1ccc(C(=O)O)cc1	-3	-16	0.3	0.089
CCOC(=O)c1cc(C#N)c(Sc2n[nH]c(C(C)(C)C)n2)nc1C(F)(F)F	1	-36	1.4	-0.058
Cc1ccc(S(=O)(=O)N(C)C[C@H]2Oc3ccc(NC(=O)CCCN(C)C)cc3C(=O)N([C@@H](C)CO)C[C@H]2C)cc1	-1	4	-0.1	-0.49
C[C@@H]1CN([C@H](C)CO)C(=O)c2cccc(NC(=O)c3ccc(-c4nccs4)cc3)c2O[C@@H]1CN(C)S(=O)(=O)c1ccccc1	-7	17	-1.2	0.14
COc1ccc(C)cc1S(=O)(=O)N1CCCC(C(N)=O)C1 (stereo not drawn)	-1	x	3.8	x
C[C@@H]1CN([C@H](C)CO)C(=O)c2cc(NS(=O)(=O)c3cn(C)cn3)ccc2O[C@@H]1CN(C)CC1CC1	5	3	0.1	-0.11
Cc1ccc(S(=O)(=O)Nc2ccc3c(c2)C(=O)N([C@H](C)CO)C[C@@H](C)[C@H](CN(C)Cc2ccc(Oc4ccccc4)cc2)O3)cc1	12	50	-1.8	0.29
COc1ccc(CCNC(=O)c2nc3ncccn3n2)cc1OC	-28	x	2.7	x
C[C@H]1CN([C@@H](C)CO)C(=O)c2cc(NS(C)(=O)=O)ccc2O[C@@H]1CN(C)C(=O)NC1CCCCC1	13	x	x	-0.19
O=C1C=CC(=O)N1c1ccccc1	64	x	-7.4	1.2
C[C@H]1CN([C@@H](C)CO)C(=O)c2cc(NC(=O)NC3CCCCC3)ccc2O[C@@H]1CN(C)Cc1ccc(C(=O)O)cc1	-2	12	x	-0.0047
Cc1ccc(S(=O)(=O)Nc2cccc3c2O[C@H](CN(C)C(=O)Nc2ccc4c(c2)OCO4)[C@@H](C)CN([C@@H](C)CO)C3=O)cc1	-3	-57	x	0.13
C[C@@H]1CCCCO[C@@H](CN(C)C(=O)NC2CCCCC2)[C@@H](C)CN([C@H](C)CO)C(=O)c2cc(NC(=O)Cc3ccccc3)ccc2O1	12	x	-0.2	0.23
Cc1noc(C)c1S(=O)(=O)N(C)C[C@@H]1OCCCC[C@@H](C)Oc2ccc(NC(=O)CCCCCC(=O)Nc3ccccc3N)cc2C(=O)N([C@H](C)CO)C[C@@H]1C	6	x	0.0	-0.67
CC(C)NC(=O)N(C)C[C@H]1Oc2ccc(NS(=O)(=O)c3ccc(F)cc3)cc2C(=O)N([C@H](C)CO)C[C@H]1C	3	7	1.8	-0.021
Cc1ccc(NC(=O)CCC(=O)c2ccc(Oc3ccccc3)cc2)cc1	10	x	-0.3	x

One compound at a time, from the list above:
C[C@@H]1CCCCO[C@@H](CN(C)C(=O)NC2CCCCC2)[C@@H](C)CN([C@H](C)CO)C(=O)c2cc(NC(=O)Cc3ccccc3)ccc2O1 in the list: MITF inh: 12; Shh pathway inh: x; PD-1 reverse act: -0.2; YB-1 expr inh: 0.23
COc1ccc(S(=O)(=O)Nc2ccc3c(c2)C(=O)N([C@H](C)CO)C[C@H](C)[C@@H](CN(C)S(=O)(=O)c2cn(C)cn2)OCCCC[C@@H](C)O3)cc1 in the list: MITF inh: -11; Shh pathway inh: 54; PD-1 reverse act: x; YB-1 expr inh: 0.18

Random excerpt: 3 entries already listed.
SMILES	MITF inh	Shh pathway inh	PD-1 reverse act	YB-1 expr inh
COc1ccccc1NC(=O)C1=C(C)Nc2ncnn2C1c1cc(Br)c(O)c(OC)c1 (stereo not drawn)	0	x	1.1	x
C[C@H]1CN([C@@H](C)CO)C(=O)c2cc(NS(C)(=O)=O)ccc2O[C@@H]1CN(C)C(=O)NC1CCCCC1	13	x	x	-0.19
CCOC(=O)c1cc(C#N)c(Sc2n[nH]c(C(C)(C)C)n2)nc1C(F)(F)F	1	-36	1.4	-0.058
